# Screening data (PubChem BioAssay)
# RE007 growth inh – less growth of the S. pombe RE007 Vpr strain. S. pombe RE007 Vpr strain, BacTiter-Glo ATP luminescence, 24 h; control for the full effect not named in the record. Potency, µM (series often up to 92.2 µM), for the others: at the highest dose activity change, negative = less growth. actives 0.21% (n = 360,000). AID 651644; active = well fitted falling curve with a large enough effect; inconclusive = small, poorly fitted or top-dose-only effect; inactive = no such curve, though single readings can be large or run the other way;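 also: % is scaled to controls: 0 for no effect and ±100 for the full control effect; nearly all actives have a fitted effect of over 50% in size; the assay follows cell death caused by Vpr and the record does not say whether a fall means rescue or toxicity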
#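 Fission yeast RE007 carrying one integrated HIV-1 vpr copy, seeded at OD 0.01 in PMG+AL medium with 23 nL pinned compound. Grown 24 h at 30 degrees; viability read by BacTiter-Glo luminescence after 5 min.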
# NS1 inh – inhibitors of influenza NS1 protein function; actives 0.4% (n = 270,000); Potency, µM (doses to about 46.1 µM), without a hit: top-dose activity, positive = more growth; S. cerevisiae slowed by influenza A NS1, growth recovery by OD600; AID 2326; also: actives are rising curves; nearly all actives have a fitted effect of over 50% in size
#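 In this qHTS, NS1 from influenza A is expressed in budding yeast, where it slows growth. Cells are switched from glucose to 2% galactose medium (pH 6.0, -URA), treated with compound, and growth recovery is read at OD600.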
# Cruzain Triton – blocks cruzain activity in presence of Triton detergent. actives 0.43% (n = 200,000). purified cruzain, Z-FR-AMC fluorescence, 0.01% Triton. AID 1478. P25779. Potency, µM, for the others: max response, negative = inhibition, most hits filed as inhibitors; active = well fitted curve in the direction sought with a large enough effect; inconclusive = small, poorly fitted or top-dose-only effect, or another doubt; inactive = no such curve, though single readings can be large; an effect the other way counts as inactive or inconclusive;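 also: plate controls were neutral wells for no effect and buffer without enzyme for full effect; nearly all actives have a fitted effect of over 40% in size; top concentration of the series not given in the record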
# Target sequence (P25779 123-467 limits assumed): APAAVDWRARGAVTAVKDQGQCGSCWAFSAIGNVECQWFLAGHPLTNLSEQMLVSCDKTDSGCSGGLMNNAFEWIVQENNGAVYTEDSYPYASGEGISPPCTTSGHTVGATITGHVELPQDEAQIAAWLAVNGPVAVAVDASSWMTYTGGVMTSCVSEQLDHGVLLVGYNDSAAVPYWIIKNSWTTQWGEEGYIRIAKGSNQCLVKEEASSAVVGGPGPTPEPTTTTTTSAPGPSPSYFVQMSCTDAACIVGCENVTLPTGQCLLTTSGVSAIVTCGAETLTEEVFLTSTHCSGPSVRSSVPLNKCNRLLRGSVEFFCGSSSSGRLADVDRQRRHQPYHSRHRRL
#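 Compounds were screened in titration against cruzain (1.5 nM) with 0.01% Triton X-100 to counter colloidal aggregation. Activity was the AMC fluorescence increase over 60 s after adding 2 uM Z-FR-AMC at pH 5.5.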
# StopGo reporter – FMDV 2A StopGo reporter, luciferase signal; human cells with a luciferase reporter of 2A StopGo recoding; control for the full effect not named in the record; Potency, µM (highest dose often 57.9 µM), without a hit: at the highest dose signal change, negative = less light; actives 1.2% (n = 410,000); AID 1159524; active = well fitted falling curve with a large enough effect; inconclusive = small, poorly fitted or top-dose-only effect; inactive = no such curve, though single readings can be large or run the other way; tested in HEK293T cells; also: % is scaled to controls: 0 for no effect and ±100 for the full control effect; nearly all actives have a fitted effect of over 45% in size; luciferase light after 4 h
# SARS PLP yeast – SARS-CoV PLP inhibition in yeast | actives 0.19% (n = 330,000) | AID 485353 | Potency, µM (titrated, usually from 32.9 µM), inactives show top-dose activity, positive = growth rescue | S. cerevisiae expressing SARS-CoV PLpro, growth rescue; control for the full effect not named in the record; also: 0% is about no effect; nearly all actives have a fitted effect of over 55% in size; growth read by luminescence after 48 h
# Lassa entry inh – blocks Lassa virus binding to or entry into cells; actives 1.2% (n = 300,000); Lassa virus pseudotype entry inhibition, cell reporter; control for the full effect not named in the record; Potency, µM (series often up to 37.9 µM), inactives show at the highest dose activity change, negative = inhibition, hits mostly inhibitors; active means well fitted inhibition curve with a large enough effect; inconclusive means small, poorly fitted or top-dose-only effect, or effect the other way; inactive means flat fitted curve, though single readings scatter; tested in HEK293 cells; also: % is scaled to controls: 0 for no effect and ±100 for the full control effect; nearly all actives have a fitted effect of over 50% in size; luciferase read-out
# Cruzain noTriton – inhibitors of Trypanosoma cruzi cruzain without detergent. P25779. purified cruzain, Z-FR-AMC fluorescence, no detergent. Potency, µM, for the others: max response, negative = inhibition, most hits filed as inhibitors. actives 2.3% (n = 200,000). AID 1476; active = well fitted curve in the direction sought with a large enough effect; inconclusive = small, poorly fitted or top-dose-only effect, or another doubt; inactive = no such curve, though single readings can be large; an effect the other way counts as inactive or inconclusive;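 also: plate controls were enzyme without inhibitor for no effect and buffer without enzyme for full effect; nearly all actives have a fitted effect of over 40% in size; top concentration of the series not given in the record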
#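 Detergent-free condition (0.00005% Triton X-100) in acetate buffer pH 5.5 with DTT. 1.5 nM enzyme and compound were pre-mixed 15 min, then 2 uM Z-FR-AMC substrate added; reaction progress from fluorescence change between first and third reads (60 s).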
# Marburg entry inh – inhibitors of Marburg virus binding or cell entry; Marburg virus pseudotyped entry inhibition, cell reporter; control for the full effect not named in the record; about a third of the inactives were read at about 46 µM; Potency, µM (top dose mostly 37.8 µM), for the others: at the highest dose activity change, negative = inhibition, hits mostly inhibitors; actives 1.8% (n = 300,000); active = well fitted inhibition curve with a large enough effect; inconclusive = small, poorly fitted or top-dose-only effect, or effect the other way; inactive = flat fitted curve, though single readings scatter; tested in HEK293 cells; about a fifth of its hits are not listed in these tables; also: % is scaled to controls: 0 for no effect and ±100 for the full control effect; luciferase read-out
# * = called active by the depositor; ? = inconclusive; . = not tested or not shown; [ ] = remark or other dose. Unless noted, calls follow the shape of the dose curve; as a rule, active means well fitted rising curve with a large enough effect; inconclusive means small, poorly fitted or top-dose-only effect; inactive means no such curve, though single readings can be large or run the other way. Potency is read from the fitted curve at half-maximal effect. The order is random. About 4.6% of those tested had a hit in this group.
# Every second line gives: RE007 growth inh	NS1 inh	Cruzain Triton	StopGo reporter	SARS PLP yeast	Lassa entry inh	Cruzain noTriton	Marburg entry inh
C[C@H](NC(=O)c1nc[nH]c1C(=O)NCc1ccccc1)C(=O)OC(C)(C)C
  -6%	5%	.	-23%	0%	.	.	.
COCCn1nnnc1C(c1cc2ccc(OC)cc2[nH]c1=O)N1CCc2ccccc2C1 (stereo not drawn)
  5%	-6%	-9.1%	.	-13%	5%	7%	-18%
Cc1nnnn1/C(=C\c1ccccc1)C(=O)OCC(=O)N(C)C1CCS(=O)(=O)C1 (stereo not drawn)
  -17%	.	.	-24%	1%	-1%	.	-30%[46.1 µM]
O=C(/C=C/c1ccco1)N(Cc1ccc(F)cc1)C1CCS(=O)(=O)C1 (stereo not drawn)
  7%	2%	.	-11%	0%	30%[46.1 µM]	.	5%[46.1 µM]
O=C(O)CCC(NC(=O)c1cncc(O)c1)C(=O)O (stereo not drawn)
  13%	7%	3.2%	-9%	0%	-3%	-1%	18%
CN(C)CCCNS(=O)(=O)c1ccc(N2CCC(c3ccc(Cl)cc3)=N2)cc1
  .	-72%	32µM*	.	-21%	.	?	.
COc1cc(CNC(=O)c2cc3ccccc3oc2=O)cc(OC)c1OC
  -13%	.	.	-10%	.	3%	.	-2%[46.1 µM]
CC(C)NC(=O)CN(C(=O)CCC(=O)Nc1nccs1)c1ccc(C(C)C)cc1
  6%	17%	.	-4%	2%	.	.	.
O=C(O)c1ccccc1-c1ccccc1C(=O)NNc1ccc([N+](=O)[O-])cc1
  0%	-53%	.	9%	0%	20%[46.1 µM]	.	-20%[46.1 µM]
CC1=C(C(N)=O)C(c2ccccn2)n2nc(SCc3ccccc3Cl)nc2N1 (stereo not drawn)
  -8%	5%	7.4%	-10%	-13%	?	-5%	?
COc1ccc(F)cc1S(=O)(=O)Nc1cccc(C(=O)O)c1
  0%	16%	0.4%	0%	-29%	-6%	-5%	?
C=CCn1c(Sc2ccccc2)nc2c1c(=O)[nH]c(=O)n2C
  -2%	3%	-1.0%	-22%	7%	2%	8%	2%
COc1ccc(-c2nsc(NC(=O)c3oc4ccccc4c3C)n2)cc1
  .	.	3.9%	-23%	.	?	16%	-18%[46.1 µM]
Cc1ccc(OCCn2cc(C#N)c3ccccc32)cc1
  -5%	-7%	-9.1%	?	7%	-8%	-19%	?
Cc1ccc(-n2c(C)cc(C(=O)C(=O)Nc3ccccc3)c2C)c(C)c1
  .	.	-4.6%	9%	.	-14%[46.1 µM]	9%	-2%[46.1 µM]

# (list continues)
# Every second line gives: RE007 growth inh	NS1 inh	Cruzain Triton	StopGo reporter	SARS PLP yeast	Lassa entry inh	Cruzain noTriton	Marburg entry inh
CC1(C)Cc2nc3[nH]c(=S)[nH]c(=O)c3cc2CO1
  8%	2%	.	-14%	1%	-17%	.	16%[46.1 µM]
Cc1ccc2nc(SCc3cccc([N+](=O)[O-])c3)nc(C)c2c1
  -7%	4%	-2.8%	4%	5%	5%	-17%	7%
Cc1ccccc1NC(=O)c1ccc(F)c(S(=O)(=O)N(C)Cc2ccccc2)c1
  .	.	0.2%	?	.	-23%[46.1 µM]	8%	.
Cc1cc(=O)n2c(n1)NC(Nc1cccc(C)c1C)=NC2c1ccc(F)cc1 (stereo not drawn)
  1%	1%	.	-16%	-1%	-10%[46.1 µM]	.	?
O=C(NCc1cccnc1)C(=O)NCC1OCCCN1S(=O)(=O)c1ccccc1 (stereo not drawn)
  5%	-13%	-2.5%	-6%	6%	4%	-6%	-1%
COc1ccc2ccccc2c1/C=N/NC(=S)Nc1cc(S(=O)(=O)N2CCOCC2)ccc1N1CCOCC1
  8%	?	-3.6%	-19%	11%	0%	?	0%
COC(=O)c1ccccc1NC(=O)n1cc(C)cn1
  -10%	-3%	0.3%	-8%	0%	16%	-2%	3%
CNC(=O)c1cc(C(=O)c2ccc(Cl)cc2)c[nH]1
  2%	0%	.	15%	-4%	11%[46.1 µM]	.	21%[46.1 µM]
Cc1cc(OCC(=O)N2CCC(C(N)=O)CC2)c2c(C)c(C)c(=O)oc2c1
  0%	-15%	.	?	-4%	.	.	.
CCCc1cc(=O)n2c(nc3ccccc32)[nH]1
  -4%	-31%	-2.6%	-1%	-11%	-20%	-11%	9%
COC(=O)c1cc(COc2ccc3c4c(c(=O)oc3c2)CCC4)c(C)o1
  .	1%	4.2%	.	0%	.	-7%	-2%
Cc1cc(C)c2cc(C#N)c(NCCOC(=O)c3ccccc3C)nc2c1
  -6%	-6%	-8.9%	.	-17%	-1%	0%	-1%
CC1=CC(C)(C)[N+](C)=CN1c1ccccc1
  4%	5%	2.3%	3%	27%	13%	-5%	7%
O=C(Nc1ccc(-c2nc3cc(NC(=O)c4cccs4)ccc3o2)cc1)c1cccs1
  16%	20%	2.4%	4%	4%	15µM*	-6%	8.2µM*
CCC(C)[C@H]1COCCS(=O)(=O)N1Cc1ccc(C)cc1 (stereo partly drawn)
  -7%	-2%	.	0%	-6%	.	.	.

# Continuation.
# Every second line gives: RE007 growth inh	NS1 inh	Cruzain Triton	StopGo reporter	SARS PLP yeast	Lassa entry inh	Cruzain noTriton	Marburg entry inh
N#CCOC(=O)[C@H](Cc1ccccc1)N1C(=O)c2ccccc2C1=O
  5%	-1%	.	-4%	1%	.	.	.
O=S(=O)(NCc1ccc2c(c1)OCO2)c1ccc(F)c(F)c1
  0%	3%	.	13%	-1%	-4%[46.1 µM]	.	?
Oc1ccc(-c2nc3ccc(Cl)cn3c2Nc2ccc(Cl)cc2)cc1
  .	.	-17%	-26%	.	?	-1%	3%[46.1 µM]
COc1cc(C2c3c(oc4ccccc4c3=O)C(=O)N2c2nccs2)ccc1O (stereo not drawn)
  1%	?	.	-12%	0%	-15%[46.1 µM]	.	?
CCOc1ccc(Cl)cc1/C=N/NC(=O)c1ccccc1
  7%	4%	-1.2%	0%	-11%	6%	13%	-5%
COCCn1c(SCC(=O)NC2CCCC2)nc2ccccc2c1=O
  5%	.	.	-13%	1%	4%	.	11%
N#CCCN(C(=O)CN1C(=O)NC2(CCCC2)C1=O)c1ccccc1F
  -10%	-8%	3.1%	3%	-4%	8%	-4%	-13%[46.1 µM]
COc1ccc(OCC(O)CN2CCN(c3ccc(Cl)cc3)CC2)cc1 (stereo not drawn)
  -23%	-5%	.	-23%	-3%	.	.	.
O=C(CSc1nnc(NC(=O)C2CC2)s1)Nc1ccc(F)cc1F
  15%	-2%	.	-10%	3%	0%	.	-10%
Cc1ccc2nc(-c3ccc(O)c(O)c3)cn2c1
  17%	13%	.	13µM*	-3%	?	.	?
CC(=O)C1(C)OC(N)=C(C#N)C(c2ccccc2)C1(C#N)C#N (stereo not drawn)
  18%	11%	0.6%	2%	-3%	0%	4%	0%
O=C(O)CN=CC1=C(O)CC(c2ccccc2)CC1=O (stereo not drawn)
  1%	-9%	.	2%	8%	.	.	.
C#CCOc1ccc(C2C3=C(CC(C)(C)CC3=O)N(CC(=O)O)C3=C2C(=O)CC(C)(C)C3)cc1OC
  4%	5%	.	1%	1%	.	.	.
O=C(O)Cc1cn(-c2ccccc2)nc1-c1ccccc1
  9%	1%	.	-16%	0%	1%[46.1 µM]	.	9%[46.1 µM]
Cc1nn(CC(=O)NCCCN2CCCCC2)c(=O)c2cccn12
  -12%	0%	.	-10%	1%	.	.	.

# Sorted by length of the SMILES (low to high): some entries from above.
# Every second line gives: RE007 growth inh	NS1 inh	Cruzain Triton	StopGo reporter	SARS PLP yeast	Lassa entry inh	Cruzain noTriton	Marburg entry inh
O=C(O)Cc1cn(-c2ccccc2)nc1-c1ccccc1
  9%	1%	.	-16%	0%	1%[46.1 µM]	.	9%[46.1 µM]
COCCn1c(SCC(=O)NC2CCCC2)nc2ccccc2c1=O
  5%	.	.	-13%	1%	4%	.	11%
Cc1nn(CC(=O)NCCCN2CCCCC2)c(=O)c2cccn12
  -12%	0%	.	-10%	1%	.	.	.
COc1cc(C2c3c(oc4ccccc4c3=O)C(=O)N2c2nccs2)ccc1O (stereo not drawn)
  1%	?	.	-12%	0%	-15%[46.1 µM]	.	?

# The listing continues:
# Every second line gives: RE007 growth inh	NS1 inh	Cruzain Triton	StopGo reporter	SARS PLP yeast	Lassa entry inh	Cruzain noTriton	Marburg entry inh
COC(=O)c1ccc(C2/C(=C(/O)c3ccc(OC)cc3)C(=O)C(=O)N2CC2CCCO2)cc1 (stereo not drawn)
  3%	-16%	-2.1%	14%	1%	14%	-2%	-9%
Cc1cc(C(=O)NCc2ccc(S(N)(=O)=O)cc2)cs1
  13%	-7%	-1.2%	17%	0%	-8%[14.3 µM]	-2%	3%
C/C(=N\Nc1nc(-c2ccccc2)cs1)c1cccs1
  -4%	12%	?	0%	8%	?	7.9µM*	?
CCc1cccc(C)c1NC(=S)NCC(c1cccnc1)N1CCOCC1 (stereo not drawn)
  -8%	0%	2.8%	-1%	-30%	13%	8%	?
CCOc1ccc(CCNC(=O)CCCc2nnc3n(C)c(=O)c4sccc4n23)cc1OCC
  .	.	-0.1%	-8%	.	13%[46.1 µM]	4%	-15%[46.1 µM]
COc1cccc(CN2CCNC(=O)C2CC(=O)NCCN2CCCCC2=O)c1 (stereo not drawn)
  8%	14%	.	-22%	-1%	.	.	.
COc1cc2c(cc1OC)C(c1cccc([N+](=O)[O-])c1)NC(=O)C2 (stereo not drawn)
  -9%	-2%	.	-1%	1%	0%[46.1 µM]	.	?
CCN(CC)S(=O)(=O)c1ccc2c(c1)c(=O)c(C(=O)NCc1cccs1)cn2C
  27%	27%	-2.4%	-4%	24%	?	?	-15%
COc1cc(OC)c(NC(=O)Cn2c(=O)cc(C(F)(F)F)c3c(C)nn(C)c32)cc1Cl
  .	.	-1.8%	1%	.	8%[46.1 µM]	-2%	.
COc1ccc(O)c(/C=N/NC(=O)c2ccc(N3CCCC3=O)cc2)c1
  1%	6%	.	-19%	2%	?	.	?
COc1ccccc1OCC(=O)Nc1cc(S(=O)(=O)N2CCCCC2)ccc1N1CCCCC1
  -2%	?	0.7%	?	11%	?	?	?
